Compound activity as filed in PubChem.
Beta cell apopt: inhibitors of cytokine-induced beta cell apoptosis, primary screen, luminescence; INS-1E cytokine-induced death, ATP luminescence, 48 h; percent of positive-control rescue, neutral wells zero; protection from apoptosis, % (test concentration not listed); actives 0.8% (n = 300,000);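 active = all replicates at 75% or more, or half of them and the mean; inconclusive = half reach 75% but not the mean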;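 also: 0% = cytokine-treated negative control wells and 100% = positive control rescue; higher means more ATP so stronger rescue from cytokine killing; wells of about 40 µL received 100 nL stock; the first replicate is given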
AF4-AF9 inh: inhibitors of AF4 peptide binding to AF9, primary screen, biochemical, AlphaScreen, biotin-AF4 peptide, FLAG-AF9, single point. actives 0.47% (n = 350,000). Protein AF-9 (Homo sapiens), P42568. AID 651704, 2012. inhibition, % at 10 µM;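 active = every replicate reaching a set inhibition limit, whatever the replicate mean, cut at about 25% in these data; inconclusive = mean inhibition reaches that limit but some replicates miss it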;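 also: 0% = plate neutral control median and 100% = total signal loss; the record names both 10 and 1 µM as test concentration; the first replicate is given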
RanGTP-Impb inh: inhibitors of RanGTP-importin-beta interaction, primary screen, biochemical, FRET, CFP-Ran, YFP-importin-beta, homogeneous; Ran GTPase (GTP-bound) - importin-beta complex; cell-free CFP-Ran/YFP-importin-beta FRET ratio; inhibition, % (no concentration beside the values); actives 1.1% (n = 300,000);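 active = most replicates above 15%; inconclusive = exactly half above 15%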;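 also: 0% = DMSO wells and 100% = Ran loaded with GDP instead of GTP; wells of about 40 µL received 100 nL stock; the first replicate is given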
LANA-H2A inh: blockers of LANA interaction with H2A/H2B – biochemical, FP readout, HTS, primary screen | cell-free LANA-H2A/H2B peptide, fluorescence polarization | inhibition, % (concentration not given with the values) | actives 0.6% (n = 320,000) | AID 2629, 2010; in the data active = inhibition mostly above about 10%, no sharp cut-off; inactive = mostly below about 6.7%;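 also: stock transfer was 7.5 nL into about 10 µL; 0% = median of vehicle wells and 100% = median of positive control wells; one replicate is shown; the record names a cut of 25% in any replicate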
Target sequence (Q9QR71 whole entry, looked up): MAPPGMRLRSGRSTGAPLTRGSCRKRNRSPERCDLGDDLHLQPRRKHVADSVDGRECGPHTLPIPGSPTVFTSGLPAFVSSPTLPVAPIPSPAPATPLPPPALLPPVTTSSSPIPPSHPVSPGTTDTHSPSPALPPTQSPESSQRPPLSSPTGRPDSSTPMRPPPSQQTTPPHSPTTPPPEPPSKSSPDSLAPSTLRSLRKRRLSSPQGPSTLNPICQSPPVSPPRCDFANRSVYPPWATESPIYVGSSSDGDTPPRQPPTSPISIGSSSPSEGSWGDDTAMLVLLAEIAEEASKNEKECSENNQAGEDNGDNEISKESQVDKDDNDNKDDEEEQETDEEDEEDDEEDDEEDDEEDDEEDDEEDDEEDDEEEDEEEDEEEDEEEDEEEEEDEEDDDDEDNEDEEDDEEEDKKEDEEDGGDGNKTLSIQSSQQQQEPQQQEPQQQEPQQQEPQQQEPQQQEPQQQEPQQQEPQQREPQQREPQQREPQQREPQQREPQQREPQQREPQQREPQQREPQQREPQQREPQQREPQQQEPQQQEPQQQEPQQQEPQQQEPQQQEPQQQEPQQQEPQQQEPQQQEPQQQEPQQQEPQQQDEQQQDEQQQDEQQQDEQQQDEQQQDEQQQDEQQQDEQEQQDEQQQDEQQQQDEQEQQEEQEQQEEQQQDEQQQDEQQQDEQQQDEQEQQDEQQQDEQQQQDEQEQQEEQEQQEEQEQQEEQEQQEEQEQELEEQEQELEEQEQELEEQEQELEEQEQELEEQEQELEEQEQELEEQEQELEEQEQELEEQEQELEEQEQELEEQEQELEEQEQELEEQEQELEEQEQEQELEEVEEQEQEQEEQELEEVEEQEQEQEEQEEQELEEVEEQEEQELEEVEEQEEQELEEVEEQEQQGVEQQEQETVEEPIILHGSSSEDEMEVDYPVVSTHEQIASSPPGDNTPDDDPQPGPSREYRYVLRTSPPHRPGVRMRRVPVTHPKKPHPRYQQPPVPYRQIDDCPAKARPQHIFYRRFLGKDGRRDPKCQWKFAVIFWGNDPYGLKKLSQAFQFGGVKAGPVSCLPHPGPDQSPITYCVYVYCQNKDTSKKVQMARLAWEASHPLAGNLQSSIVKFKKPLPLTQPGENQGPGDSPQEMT
A1 inh: caspase 3/7 activation in MEF A1-2A-BIM cells, primary screen, A1 inhibitor project, cell-based, luminescence, HTS | caspase activation, % (concentration not given with the values) | Caspase-Glo 3/7 luminescence, 3 h; percent of clofoctol response, vehicle zero | actives 0.066% (n = 330,000);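 active = over half of replicate activation scores above 10%, or exactly half above 10 with the replicate mean above 10; inconclusive = replicate mean below 10 yet half the replicates above 10; inactive = over half of replicates below 10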;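 also: wells of about 30 µL received 50 nL stock; many hits fall short of the cut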
T cruzi repl: inhibitors of intracellular T. cruzi growth, primary screen, luminescence, NIH3T3 host cells | T. cruzi beta-gal in NIH3T3, 90 h | inhibition, % (test concentration not listed) | actives 1.4% (n = 300,000) | AID 1885, 2009;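 active = mean inhibition across valid replicates above about 55%, limit read from the data; inconclusive = mean below that limit but half or more replicates reach it; inactive = mean below it, under half of replicates reach it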;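 also: signal also drops with host cell toxicity which is not excluded here; 0% = plate median of DMSO wells and 100% = zero luminescence signal; higher percent means less beta-gal luminescence so fewer parasites; stock transfer was 50 nL into about 50 µL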
Vif TR-FRET: inhibitors of Vif binding to APOBEC3G peptide, primary screen, biochemical, TR-FRET, GST-Vif 1-94, biotin-A3G peptide, dose response retest (AID 1117319); TR-FRET GST-Vif / biotin-A3G peptide binding; higher % means a stronger effect; test concentration not given here; strong numbers were not always called active; one-dose inhibition, %; IC50 in µM for titrated hits; actives 0.57% (n = 260,000);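 active = above the screen mean plus three standard deviations and confirmed in dose response; inconclusive = results disagree or hit not tested in dose response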;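 also: Vif residues 1-94 fused to GST binding biotinylated APOBEC3G peptide 110-148; 0% = full assay without inhibitor and 100% = GST in place of GST-Vif; retest series ran down from 100 µM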
Calb FLC: C. albicans growth inhibition with fluconazole, primary screen, CaCi-2 strain, Alamar Blue fluorescence; C. albicans CaCi-2 (fluconazole-resistant clinical isolate) + fluconazole, 48 h; growth inhibition, % (concentration not given with the values); actives 0.57% (n = 300,000); AID 1979, 2009;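 active = most replicates above 75%; inconclusive = exactly half above 75%; inactive = most below 75%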;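 also: all wells also contain fluconazole at 8 µg/ml as a sub-toxic cotreatment; 0% = median of DMSO wells and 100% = median of geldanamycin control wells; wells of about 8 µL received 7.5 nL stock; the first replicate is given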
Starred values were filed as active, the others as inactive; i = inactive; ? = inconclusive; / = not tested or not shown; & = joins results of further samples. Rows were taken by chance; 4.3% or so of the library scored in one or more.

SMILES | Beta cell apopt | AF4-AF9 inh | RanGTP-Impb inh | LANA-H2A inh | A1 inh | T cruzi repl | Vif TR-FRET | Calb FLC
Cc1ccc(S(=O)(=O)N[C@H](C(=O)N2CCC(C(=O)N[C@H](C(=O)O)c3ccccc3)CC2)C(C)C)cc1 | 0.4 | -4.7 | 2.9 | 0.9 | 1.8 | -8.8 | / | -5.1
Cc1ccc(-c2csc3nc4c5ccccc5c(NCCCN(C)C)nn4c(=O)c23)cc1 | 6.5 | -1.7 | 3.1 | -8.9 | 0.0 | 34.8 | / | 77.9*
CC(C)OC(=O)CSc1nnc(-c2ccc(Cl)cc2Cl)o1 | -1.5 | / | 1.9 | 4.1 | -0.3 | -19.8 | -3.7% | 25.8
Cc1[nH]n(-c2ccc([N+](=O)[O-])cc2)c(=O)c1C=NCC1CCCO1 (stereo not drawn) | 26.5 | -9.1 | -3.4 | 0.1 | -0.5 | -18.4 | 5.7% | 50.0
CO[C@H]1O[C@H](C)[C@@H](O)C[C@H]1NC(=O)OCc1ccccc1 | -5.3 | -0.3 | -4.3 | 2.9 | -0.1 | 1.5 | / | 3.7
Cc1ccc(S(=O)(=O)N(C)C[C@@H]2Oc3ccc(NC(=O)Cn4cnnn4)cc3C(=O)N([C@@H](C)CO)C[C@H]2C)cc1 | -4.6 | -2.2&2.0 | / | -2.6 | -0.7 | / | / | /
CCc1ccc(C(=O)COC(=O)C(Cc2ccccc2)NC(=O)c2ccc(Cl)cc2)cc1 (stereo not drawn) | -5.5 | / | -1.5 | 4.1 | 0.6 | -8.5 | -3.3% | 2.8
Cc1cccc(NC(=O)Nc2ccc3c(c2)N(C)C(=O)CS3)n1 | -2.3 | 0.9 | -6.2 | 5.7 | -0.3 | 3.6 | 1.4% | -2.4
O=C(O)COc1ccc2c(c1)O/C(=C\c1cccs1)C2=O | -6.5 | ? | 14.4 | 1.7 | -2.3 | -11.7 | -4.5% | 10.3
CCCCNC(=O)CCC(=O)Nc1ncc(-c2ccc(C)cc2)n1C | -2.5 | / | 3.6 | 2.0 | 1.3 | -14.2 | 24.2% | -0.1
O=C(CSc1ccc2nnc(-c3ccc(Cl)cc3)n2n1)N1CCc2ccccc21 | 5.2 | -12.4 | 3.5 | 5.1 | 0.3 | 5.9 | 4.5% | -0.3
Cc1ccc2c(C)c(C(=O)N3CCN(c4cnccn4)CC3)oc2c1C | -7.3 | 0.0 | -0.7 | 3.0 | 0.8 | 13.4 | / | -1.6
CC(C)=C1C2C=CC1C1C(=O)N(c3ccc4c(c3)OCO4)C(=O)C21 (stereo not drawn) | -3.1 | / | 5.0 | -0.5 | 3.6 | 1.7 | 10.3% | 2.1
CCOc1cc(/C=C2\C(=O)N(Cc3ccc(C)cc3)C(C)=C2C(=O)OC)ccc1O | -1.2 | / | -7.2 | -3.1 | -0.7 | -6.3 | 10.2% | -4.1
C#CCN1C(=O)S/C(=C\c2ccc(-c3ccc(C(=O)O)cc3C)o2)C1=O | 3.8 | -3.0 | ? | 5.6 | 0.0 | 9.2 | 27.8% | 16.5
CCCN(CC(=O)Nc1ccc(F)c(F)c1F)C(=O)c1ccc(N2CCCC2=O)cc1 | 0.3 | -1.3 | / | -3.5 | 1.3 | / | 6.8% | /
Cc1ccc(-c2noc(CCC(=O)NCc3ccco3)n2)cc1 | -9.1 | / | 5.1 | 1.9 | -0.5 | -30.3 | 2.6% | -1.6
O=C(CSc1nnc2scc(-c3ccccc3)n12)NCC1CCCO1 (stereo not drawn) | -0.6 | / | 3.7 | -1.7 | -0.4 | 1.9 | 8.9% | 0.9
Cc1ccccc1C(=O)Nc1nc2c(C)csc2c(=O)s1 | 2.5 | 1.0 | -1.1 | 0.5 | 0.7 | 2.7 | i | 1.9
OCC(Cc1ccccc1)NCc1ccccc1C(F)(F)F (stereo not drawn) | 0.5 | 1.5 | ? | -0.1 | -0.2 | -1.8 | 5.8% | -10.1
O=C(COc1ccc(-c2ccccc2)cc1)NN=C1CCCC1 | -5.1 | 1.6 | / | -3.0 | -0.5 | / | -2.7% | -29.0
C[C@@H](NC(=O)c1[nH]cnc1C(=O)Nc1nccs1)c1ccccc1 | 8.3 | -1.7 | / | 3.1 | -0.3 | / | / | /
CCOC(=O)C1=C(C)N(C)C(C)=C(C(=O)OCC)C1c1ccccc1 | -2.0 | / | -0.5 | 0.4 | 0.0 | 10.8 | -16.8% | 5.3
O=S(=O)(NCCc1ccccn1)c1ccc(F)c(F)c1 | 0.2 | / | -3.9 | 3.8 | -0.8 | 0.8 | -1.8% | 28.3
CCCCCCCCN1[C@@H](CC(C)=O)c2cc(C(F)(F)F)ccc2S1(=O)=O | 42.4 | / | -0.2 | 2.6 | -0.4 | 20.6 | / | 1.0

(more compounds)
SMILES | Beta cell apopt | AF4-AF9 inh | RanGTP-Impb inh | LANA-H2A inh | A1 inh | T cruzi repl | Vif TR-FRET | Calb FLC
COc1cc([N+](=O)[O-])c(OC)cc1SCc1n[nH]c(=S)n1-c1ccc(F)cc1 | 3.2 | -3.0 | 0.4 | -0.3 | -0.3 | 10.1 | 2.8% | -7.2
Cc1cc(CNC(=O)CCc2nnc(CCCCc3ccccc3)o2)nn1C | -5.0 | -0.9 | -0.8 | -2.1 | -0.1 | -2.5 | -5.3% | 45.3
CC(C)N(CCNC(=O)C1CCCN(c2ncnc3c2nc2n3CCCCC2)C1)Cc1ccccc1 (stereo not drawn) | -0.7 | 2.2 | -1.1 | 0.4 | -0.2 | 35.0 | 2.7% | 0.0
Cc1ccccc1OCC(=O)N/N=C/c1ccc2c(c1)OCCO2 | 0.7 | / | 7.2 | 6.6 | -0.2 | -6.0 | / | 3.3
CC(C)c1nc2ccc(NC(=O)C3CCCCC3)cc2[nH]1 | -0.2 | / | / | 1.2 | 0.4 | / | 6.8% | /
COc1ccc(Cl)cc1NC(=O)CSc1nc(Nc2ccccc2)nc(N2CCOCC2)n1 | -2.4 | -1.4 | 0.2 | 0.7 | 0.0 | 30.5 | / | 9.5
O=C(OCc1nc2ccccc2s1)c1ccc(Br)o1 | / | 1.2 | -0.9 | 4.9 | -0.4 | -5.0 | 2.6% | -7.3
CCOC(=O)c1ccc(C(=O)OCC)c(NC(=S)Nc2ccc([N+](=O)[O-])cc2OC)c1 | 1.1 | / | 0.1 | -5.0 | -3.4 | 2.6 | / | -6.0
CCOC(=O)/C(N=Nc1c(C)n(C)n(-c2ccccc2)c1=O)=C(\C)O | -6.6 | / | -7.2 | -2.5 | 1.0 | -7.9 | 9.9% | -13.1
CC(=O)N1CCN(C(=O)c2cccc(NS(=O)(=O)c3ccc(Br)cc3)c2)CC1 | -2.3 | 2.6 | -2.6 | -0.5 | -0.9 | -2.2 | -4.9% | 5.7
Cc1nc2ccccc2c(=O)n1-c1cccc(NS(=O)(=O)c2ccccc2)c1 | / | 2.1 | 2.1 | 1.2 | -0.4 | -0.5 | 6.9% | 10.5
CN(c1ccccc1)S(=O)(=O)c1ccc(NC(=O)c2cccs2)cc1 | / | -0.6 | -3.6 | -6.7 | 1.1 | 24.5 | -6.9% | 0.6
COc1nc(OC)nc(N2CCC(C(=O)NCc3cccs3)CC2)n1 | 1.5 | / | 7.1 | -0.4 | 0.4 | 9.0 | -1.9% | 18.3
CC(=O)N1CCc2cc(S(=O)(=O)NCCCN3CCN(Cc4ccccc4)CC3)ccc21 | 1.4 | / | 2.2 | 3.2 | 0.9 | -8.1 | 0.1% | 1.4
CCn1c(SCC(=O)c2c(N)n(C3CC3)c(=O)[nH]c2=O)nc2cc(S(N)(=O)=O)ccc21 | 2.0 | 2.6 | / | -4.9 | 1.4 | / | ? | /
O=C(Nc1ccncc1)Nc1ccc(F)cc1 | -5.3 | -0.3 | -0.6 | 3.6 | 0.0 | 50.5 | / | -24.4
O=C(CN1C(=O)c2ccccc2S1(=O)=O)NC1CC2CCC1C2 (stereo not drawn) | / | -1.7 | 1.7 | -0.6 | -0.2 | -18.3 | 5.5% | 2.7
Cc1ccc(-c2nnc(Nc3ccccc3)o2)cc1 | 8.5 | -0.4 | 3.4 | 5.4 | -7.7 | -9.1 | -3.8% | -5.1
CN(C)C(=S)NCc1ccccc1 | -0.8 | / | 4.1 | 1.6 | -1.0 | 4.4 | -2.7% | 9.9
COc1ccc(S(=O)(=O)Nc2ccc3c(c2)COC3=O)cc1OC | -3.1 | / | 2.8 | 4.5 | 0.0 | -28.8 | ? | -7.5
COC(=O)c1c(Cl)c2n3ccccc3c(C)c(-c3ccccc3)c-2c1C(=O)OC | -14.4 | 13.5 | 19.1* | / | -0.2 | 5.7 | / | 34.6
O=C(CN(Cc1cccs1)C(=O)c1csnn1)NC1CCCC1 | -4.8 | / | 0.1 | 3.3 | 0.3 | -3.8 | -2.6% | -20.4
CCNc1nc(Oc2ccc(F)cc2)cc(C(F)(F)F)n1 | / | -1.7 | 0.0 | -2.6 | 0.0 | -8.4 | / | -22.6
Cn1c(Cn2cnc([N+](=O)[O-])n2)nnc1SCC(=O)Nc1ccc(Br)cc1 | -2.0 | -0.4 | -0.9 | -0.5 | -0.4 | 38.4 | 14.3% | 2.0
CCOc1ccc(NC(=O)C(=O)NCC2CCCN2CC)cc1 (stereo not drawn) | -10.5 | / | 7.8 | 1.1 | -0.7 | -6.2 | ? | -1.7

Following part
SMILES | Beta cell apopt | AF4-AF9 inh | RanGTP-Impb inh | LANA-H2A inh | A1 inh | T cruzi repl | Vif TR-FRET | Calb FLC
CCCc1nc2ccc(NC(=O)c3ccco3)cc2c(=O)n1Cc1ccccc1Cl | 8.5 | / | -0.9 | 6.8 | -0.5 | 21.7 | -9.8% | -7.4
COc1ccc(C(C(=O)NC2CCCC2)N(C(=O)Cc2cccs2)C2CC2)cc1OC (stereo not drawn) | -3.7 | 1.3 | -2.9 | 0.4 | 0.3 | -3.0 | -7.5% | -10.2
CC(=O)c1sc2nc(C)cc(C)c2c1N | -3.7 | / | 9.5 | 1.3 | -0.2 | 0.5 | 3.1% | ?
CCOC(=O)CNC(=O)c1cnc(Nc2ccccc2OC)c2ccccc12 | -3.3 | -1.1 | 1.5 | -2.5 | 0.7 | -16.3 | 1.9% | -2.6
COc1cccc(N(C(=O)c2snc(C(N)=O)c2N)C(C(=O)NCC2CCCO2)c2c[nH]c3ccccc23)c1 (stereo not drawn) | 5.2 | 6.6 | 0.5 | -10.0 | 0.0 | 4.4 | -0.1% | 37.8
CCCCNC(=O)c1ccccc1Cl | -7.0 | / | -11.3 | -5.5 | -0.5 | 7.2 | -3.0% | 1.5
CC(=O)N(Cc1ccccc1)Cc1cn(CCC#N)nc1-c1cccc([N+](=O)[O-])c1 | / | 1.6 | -2.7 | 3.7 | 0.0 | -4.3 | 5.1% | 1.0
